Screens (PubChem BioAssay)
VCAM-1 inhibition: inhibitors of TNFa-induced VCAM-1 surface display, cell-based, plate reader, pooled HUVEC, TNFa stimulus (AID 454) | HUVEC TNFa-induced VCAM-1 surface immunofluorescence, plate reader; numbers were filed only for top-ranked candidate wells | inhibition, % at 5 µM | actives 0.2% (n = 10,000);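 active = compound among top-ranked inhibitors of TNF-induced VCAM-1 adhesion protein staining, with the hit upheld by image or statistical review; inactive = the rest, including hits rejected on review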;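 also: 0% = TNFa with vehicle and 100% = cells without TNFa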
VCAM-1 augmentation: enhancers of VCAM-1 display on endothelial cells, imaging, high-content imaging, pooled HUVEC, TNFa stimulus (AID 457); Pooled HUVEC, TNFa-induced VCAM-1 immunofluorescence imaging; hits of this screen are not shown here; calls only; actives 0.2% (n = 10,000);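 active = a top-ranked rise in VCAM-1 staining upheld on image or statistical review; inactive = the rest, including candidates rejected on review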;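 also: compounds tested at 5 µM in the well; cells exposed to compound for 24 hours before fixing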
FPRL1 ligand: binds the human formylpeptide receptor-like-1 FPRL1; AID 441; inhibition, %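 (tested at 6.7 µM)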; actives 0.3% (n = 24,000); P25090; FPRL1-expressing cells, fluorescent ligand binding inhibition, flow cytometry;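 also: 0% = buffer alone and 100% = receptor blocker peptide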
Target sequence (P25090 whole entry, looked up): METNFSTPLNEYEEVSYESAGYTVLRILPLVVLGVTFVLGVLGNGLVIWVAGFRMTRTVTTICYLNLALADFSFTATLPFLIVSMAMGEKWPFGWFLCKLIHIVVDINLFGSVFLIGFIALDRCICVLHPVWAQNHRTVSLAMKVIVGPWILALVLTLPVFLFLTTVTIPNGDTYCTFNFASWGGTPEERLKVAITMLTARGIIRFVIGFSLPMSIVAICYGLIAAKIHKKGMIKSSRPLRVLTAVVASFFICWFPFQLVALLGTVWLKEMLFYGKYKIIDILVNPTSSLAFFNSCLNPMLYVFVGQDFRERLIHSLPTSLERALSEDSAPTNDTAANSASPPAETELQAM
FPR binder: human FPR ligand, with FPRL1 counter-screen | FPR-expressing cells, fluorescent ligand binding, flow cytometry | inhibition, %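 (tested at 6.7 µM)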 | actives 0.74% (n = 24,000) | AID 440;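 also: 0% = buffer wells and 100% = receptor blocker peptide wells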
Target sequence (P21462 whole entry, looked up): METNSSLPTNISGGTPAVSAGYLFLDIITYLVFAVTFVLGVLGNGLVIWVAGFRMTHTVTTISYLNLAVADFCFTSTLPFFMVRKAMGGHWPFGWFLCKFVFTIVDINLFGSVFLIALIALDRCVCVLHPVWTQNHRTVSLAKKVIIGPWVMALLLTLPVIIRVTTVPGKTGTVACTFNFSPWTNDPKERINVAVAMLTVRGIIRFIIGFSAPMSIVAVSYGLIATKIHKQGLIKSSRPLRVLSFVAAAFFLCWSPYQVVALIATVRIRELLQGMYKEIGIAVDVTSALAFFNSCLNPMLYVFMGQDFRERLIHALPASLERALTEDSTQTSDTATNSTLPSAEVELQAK
VCAM-1 imaging: inhibitors of TNFa-induced VCAM-1 surface display, imaging, high-content imaging, pooled HUVEC, TNFa stimulus (AID 456). HUVEC TNFa-induced VCAM-1 surface expression, immunofluorescence imaging; numbers were filed only for top-ranked candidate wells. inhibition, % at 5 µM, or IC50 in µM where a hit was titrated. actives 0.2% (n = 10,000);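 active = top tenth filtered wells with inhibition above zero that passed visual or statistical confirmation; inactive = the rest, including hits rejected on review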;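 also: 0% = stimulated vehicle wells and 100% = unstimulated cells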
The depositor's hits bear a star; i = inactive; x = not tested or not shown.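 The calls were made as follows, unless noted: active = mean above 30%; inconclusive = self-fluorescent; inactive = the rest.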

Each structure is followed by: VCAM-1 augmentation, VCAM-1 imaging, FPRL1 ligand, FPR binder, VCAM-1 inhibition
COc1ccc(C(=O)Nc2nncs2)c(OC)c1
    i, i, 0, 5, i
CC1(c2ccc(OC(F)F)cc2)NC(=O)N(CC(=O)Nc2ccc3c(c2)OCO3)C1=O (configuration not stated)
    i, i, 4, -1, i
O=C1CN(S(=O)(=O)c2ccc(F)cc2)CC(=O)N1CCc1ccccc1
    x, x, -6, -7, x
Cc1ccc(S(=O)(=O)NC2=NCN(C3CCCCC3)CN2)cc1
    x, x, 1, 0, x
Cc1cc(N2C(=O)C(=O)/C(=C(/O)c3ccc(F)cc3)C2c2ccc(F)cc2)no1 (configuration not stated)
    i, i, 5, 11, i
COc1ccc(N2C(=O)C3CCCN3C2c2ccc(C)o2)cc1Cl (configuration not stated)
    x, x, -7, 14, x
Cc1nc2ncnn2c(C)c1CCC(=O)N1CCOCC1
    x, x, -3, -4, x
COC(=O)C1=C(C)Nc2ncnn2C1c1ccc(OC(=O)c2ccccc2)cc1 (configuration not stated)
    x, x, 4, -8, x
O=c1c(-c2ccccc2)c(O)c2cccc3c2n1CCC3
    x, x, -4, 6, x
CCOc1ccc(OCc2cccc(C(=O)O)c2)cc1
    i, i, -9, -15, i
Cc1ccc(-n2nc3cc(Cl)c(NC(=O)c4ccco4)cc3n2)cc1
    i, i, -5, 2, i
NS(=O)(=O)c1cc2c(cc1Cl)NC(C(Cl)Cl)NS2(=O)=O (configuration not stated)
    i, i, -2, -6, i
Cc1cc(C(=O)Nc2ccccc2C#N)n(-c2ccccc2)n1
    i, i, 0, 0, i
CCN1CCCC1CNC(=O)c1cn(CC)c2ccc(S(=O)(=O)N3CCCCCC3)cc2c1=O (configuration not stated)
    x, x, -9, -2, x
COc1ccc(C(=O)NCc2nnc(SCC(=O)N3CCC(C)CC3)o2)cc1OC
    x, x, -5, -6, x
Cn1c(=O)cc(OCCCC(=O)N2CCN(c3ccccn3)CC2)c2ccccc21
    x, x, -1, -1, x
CCOC(=O)N1CCN(C(=O)c2cccn3c(=O)c4sccc4nc23)CC1
    i, i, 3, 6, i
O=C(C1CCCN(S(=O)(=O)c2cnc[nH]2)C1)N1CCN(Cc2ccccc2)CC1 (configuration not stated)
    x, x, -5, -3, x
Cc1ccc(CNC(=O)C2CCN(S(=O)(=O)c3c(C)noc3C)CC2)cc1
    i, i, 3, 19, i
O=C(Cn1c(=O)oc2ccccc21)N1CCN(c2ccc(N3CCOCC3)nn2)CC1
    x, x, -8, -4, x

Following part
Each structure is followed by: VCAM-1 augmentation, VCAM-1 imaging, FPRL1 ligand, FPR binder, VCAM-1 inhibition
CC1(C(=O)NC2CCCC2)CCC(=O)N1Cc1ccc2c(c1)OCO2 (configuration not stated)
    x, x, 1, 4, x
CC(C)c1ccc2c(c1)C(=O)NC(C)(C)C2
    x, x, -2, -1, x
COc1ccc(-c2cc3nc(C4CCN(C(=O)OC(C)(C)C)CC4)c(C(=O)O)cn3n2)cc1
    x, x, -6, -10, x
CCCS(=O)(=O)N1CCC(C(=O)NCCCOC(C)C)CC1
    x, x, 1, 3, x
O=C(CCn1c(=O)oc2ccccc21)Nc1ccon1
    x, x, 0, 0, x
COc1ccc(-c2cc3nc(C)cc(C)n3n2)c(OC)c1
    x, x, 3, 7, x
CCc1nc(NCCCN2CCOCC2)c2oc3ccccc3c2n1
    i, i, -2, 0, i
Cc1cc(C)cc(NC(=O)CN(C)S(=O)(=O)c2cccc3nsnc23)c1
    x, x, -4, -6, x
CCOC(=O)N1CCC(Nc2c(Nc3cccc(CC)c3)c(=O)c2=O)CC1
    x, x, -5, 14, x
O=C(c1cnn2ccccc12)N(Cc1ccco1)C1CCCC1
    x, x, 1, 0, x
O=C(O)c1ccc(-n2nnnc2Oc2ccccc2C(=O)N2CCOCC2)cc1
    i, i, -14, -15, i
COCCOC(=O)/C=C1/NC(=O)CS1
    i, i, 0, -4, i
O=C(CCN1CCN(c2ccccc2F)CC1)Nc1ccccc1F
    x, x, 1, 8, x
CCOc1ccc(S(=O)(=O)N2CCN(C(=O)c3cccn3C)CC2)cc1
    i, i, -6, 2, i
O=C(Nc1ccccc1Cl)c1cc(S(=O)(=O)N2CCCC(C(=O)O)C2)ccc1F (configuration not stated)
    x, x, -2, -8, x
CCCCc1n[nH]c2c1C(=O)CC(C)(C)C2
    i, i, 0, 0, i
Cc1ccc(NC(=O)CN2CC(C)SC2=NC2CCCCC2)cc1 (configuration not stated)
    i, i, 0, -6, i
O=C(NCC1COc2ccccc2O1)c1c[nH]c2ccc(S(=O)(=O)N3CCOCC3)cc2c1=O (configuration not stated)
    x, x, 2, -1, x
COC(=O)CCCCC(=O)C1C(=O)CC(C)(C)C(C(=O)OC)C1=O (configuration not stated)
    i, i, 7, 4, i
COc1ccccc1-c1cc(C(=O)Nc2cccnc2)no1
    x, x, -2, 9, x

3 compounds out of the list above, ordered by the number in FPRL1 ligand, rising:
Compound	VCAM-1 augmentation	VCAM-1 imaging	FPRL1 ligand	VCAM-1 inhibition
CCOc1ccc(S(=O)(=O)N2CCN(C(=O)c3cccn3C)CC2)cc1	i	i	-6	i
CCc1nc(NCCCN2CCOCC2)c2oc3ccccc3c2n1	i	i	-2	i
O=C(c1cnn2ccccc12)N(Cc1ccco1)C1CCCC1	x	x	1	x

The list goes on.
Each structure is followed by: VCAM-1 augmentation, VCAM-1 imaging, FPRL1 ligand, FPR binder, VCAM-1 inhibition
COC(=O)c1cnn2c(C)c(Cc3cccc(F)c3)c(C)nc12
    x, x, -2, 4, x
c1ccc(N=P(c2nc3ccccc3o2)(N2CCOCC2)N2CCOCC2)cc1
    i, i, 0, -1, i
Cc1ccc(N(C)C(=O)N2CCN(c3ccccn3)CC2)cc1
    i, i, 0, -6, i
O=C(O)c1ccc(CS(=O)c2cccc(C(F)(F)F)c2)o1 (configuration not stated)
    x, x, -3, -2, x
Cn1c(=O)c2c(nc(N3CCCCCC3)n2CC(=O)c2ccc(Br)cc2)n(C)c1=O
    x, x, 5, 3, x
CC1=C(C(=O)N2CCOCC2)C(c2ccccc2F)C2=C(CCCC2=O)N1 (configuration not stated)
    i, i, 5, -7, i
COCCN(Cc1cc2cc3c(cc2n2nnnc12)OCO3)C(=O)c1ccccc1F
    i, i, 1, -2, i
O=c1sc(Nc2ccccc2)nc2ccsc12
    i, i, -4, -1, i
CCOC(=O)N1CCC(NC(=O)CCc2c(C)nc3c(c(C)nn3C(C)(C)C)c2C)CC1
    i, i, -2, 4, i
CCOC(=O)c1c(C)c(-c2ccccc2)n(CC(=O)N2CCN(C)CC2)c1C
    x, x, -1, -3, x
CN1C(=O)C(CC(=O)N2CCN(C(c3ccccc3)c3ccccc3)CC2)N(C)C1=O (configuration not stated)
    i, i, 1, -5, i
O=S(=O)(c1ccc2oc(-c3ccncc3)nc2c1)c1ccc2oc(-c3ccncc3)nc2c1
    x, x, -12, -5, x
O=c1c2cccc3c2c(nn1CN1CCOCC1)-c1ccccc1-3
    x, x, -7, -10, x
COCCn1c(SCC(=O)Nc2sc(C)c(C)c2C#N)nnc1C(C)C
    i, i, -3, -1, i
O=C(OCc1nnc(-c2ccccc2)o1)c1ccc(S(=O)(=O)NCc2ccco2)cc1
    i, i, 2, 0, i
CCOc1ccc(-n2c(C)nc3cc(C(=O)NCc4ccco4)ccc32)cc1
    x, x, -4, -4, x
COc1ccc(C2CC(c3ccc(C)cc3)Nc3ncnn32)cc1 (configuration not stated)
    i, i, 7, 8, i
CCOC(=O)N1CCC(NC(=O)C(CC(C)C)NC(=O)C2CCCCC2)CC1 (configuration not stated)
    x, x, 2, 3, x
CC1CCCN(C(=O)C2CCN(S(=O)(=O)c3cccc4cccnc34)CC2)C1 (configuration not stated)
    x, x, 1, 3, x
c1cn(C23CC4CC(CC(C4)C2)C3)cn1
    i, i, 2, -6, i

Continuation:
Each structure is followed by: VCAM-1 augmentation, VCAM-1 imaging, FPRL1 ligand, FPR binder, VCAM-1 inhibition
Cc1ccc(/C=N/n2c(C)nnc2C)s1
    x, x, -4, -11, x
O=C(c1cc(-c2ccc(Cl)c(Cl)c2)on1)N1CCCC1
    x, x, 15, 1, x
CCCNC(=O)c1cc(S(=O)(=O)N2CCc3ccccc32)ccc1F
    i, i, 2, 1, i
CCOc1ccc(N(CC(=O)Nc2ccc3c(c2)OCCO3)S(=O)(=O)c2c(C)noc2C)cc1
    x, x, -1, 1, x
CCc1cc2c(NCCC(=O)O)ncnc2s1
    i, i, 4, 5, i
CCNc1ccc2c(Cl)cc(=O)oc2c1
    i, i, -6, -4, i
Cc1ccc2nc(SCC(=O)NCc3ccco3)c(C#N)cc2c1
    i, i, 1, 4, i
Cc1oc(-c2ccccc2)nc1CS(=O)CC(=O)N1CCc2ccccc2C1 (configuration not stated)
    x, x, -1, 3, x
CCOc1ncccc1C(=O)Nc1cccc(C(=O)Nc2cccc(S(=O)(=O)CCO)c2)c1
    x, x, 5, 10, x
CCOC(=O)N1CCN(C(=O)CC(C(=O)N2CCc3ccccc32)n2ccnc2)CC1 (configuration not stated)
    x, x, 1, -12, x
COc1ccc(NC(=O)Cn2nnc(C(=O)NCc3ccccc3OC)c2N)cc1Cl
    x, x, -3, 4, x
COc1ccc(-c2[nH]nc3c2C(c2ccc(OC(=O)N4CCOCC4)cc2)C(C#N)=C(N)O3)cc1 (configuration not stated)
    x, x, 3, -10, x
CCC(C)NC(=O)CSC1=Nc2ccccc2C2=NC(CC(=O)NCc3ccccc3)C(=O)N12 (configuration not stated)
    i, i, 0, 9, i
C=CCOC(=O)CCC(=O)Nc1cc(OC)nc(OC)n1
    i, i, 11, 7, i
Cc1cc(C)nc(SCc2ccc3nonc3c2)n1
    i, i, 1, 8, i
O=C(Nc1nc(-c2ccccc2)cs1)C1CCCO1 (configuration not stated)
    i, i, 2, -5, i
O=C(CN1CCN(c2ccc(F)cc2)CC1)Nc1cc(C(F)(F)F)ccc1Cl
    x, x, 2, -7, x
CCCCCCn1c(SCC(=O)OC)nc2c1c(=O)[nH]c(=O)n2C
    i, i, 4, 1, i
Cc1ccc(CN2C(=O)CCC2C(=O)NCCN2CCN(c3cccc(Cl)c3)CC2)cc1 (configuration not stated)
    x, x, -1, -8, x
Cc1oc2c(CN(C)C)c(O)ccc2c(=O)c1-c1cscn1
    x, x, -3, -5, x

Next part:
Each structure is followed by: VCAM-1 augmentation, VCAM-1 imaging, FPRL1 ligand, FPR binder, VCAM-1 inhibition
CCN1CCN(C(=O)c2ccc3c(c2)N(Cc2ccc(F)cc2)C(=O)c2ccccc2S3=O)CC1 (configuration not stated)
    x, x, -3, -7, x
CSC1=NCCN1C(=O)c1ccco1
    x, x, 0, -3, x
CCCSc1nnc2nc3c(nn12)c1ccccc1n3C
    i, i, 5, -4, i
CCN1CCCC1CNC(=O)c1cn(C)c2ccc(S(=O)(=O)N3CCCCCC3)cc2c1=O (configuration not stated)
    x, x, -6, -5, x
NC(=O)COC(=O)CNC(=O)c1ccc(Cl)cc1
    i, i, -1, -3, i
O=C(c1ccc(CS(=O)(=O)Cc2ccc(Cl)cc2)o1)N1CCCC1
    x, x, -1, -1, x
CCOC(=O)C(NC(=O)c1ccccc1)(Nc1cc(C)on1)C(F)(F)F (configuration not stated)
    i, i, 0, -3, i
COc1ccc(C2N(c3cc(C)on3)C(=O)C3CCCN32)cc1OC (configuration not stated)
    x, x, 1, 2, x
COC(=O)C1C(=O)NC(SC)=C(C#N)C1c1ccccc1F (configuration not stated)
    x, x, -1, 11, x
COc1cc(C(Nc2ccc3c(c2)OCO3)C(=O)NC2CCCCC2)cc(OC)c1OC (configuration not stated)
    i, i, 4, 8, i
Cc1oc2cc(O)ccc2c(=O)c1Oc1ccccc1Br
    x, x, -4, 1, x
Cc1ccc2[nH]c(=S)cc(C)c2c1
    x, x, -1, -2, x
CCCn1c(CNc2ccc(Br)cc2)nc2ccccc21
    x, x, 3, 2, x
Cc1c(NC(=O)c2ccc(CN3CCc4ccccc4C3)cc2)c(=O)n(-c2ccccc2)n1C
    i, i, 4, -5, i
CC(NC(=O)NCCCC(=O)O)(C(F)(F)F)C(F)(F)F
    i, i, 6, 7, i
CN(C)S(=O)(=O)N1CCN(c2cccc(Cl)c2)CC1
    i, i, -3, 2, i
CCC(c1nnnn1CCOC)N(Cc1ccc(C)cc1)Cc1cc2cc(OC)ccc2[nH]c1=O (configuration not stated)
    i, i, 2, 9, i
CCOC(=O)C1CCN(Cc2c(O)ccc3ccccc23)CC1
    i, i, 1, 7, i
CC(C)Cc1cc(C(=O)NCCN2CCOCC2)no1
    x, x, 2, -1, x
CC(C)(C)c1ccc(-c2nnc(SCCC#N)n2C2CCCC2)cc1
    i, i, -12, -5, i
Cn1c(Cc2cccs2)nnc1SCC(=O)N1CCc2ccccc21
    i, i, -1, -6, i

Only part of the results is shown (hit frequency here may not be typical).
